Source: PubChem BioAssay
CapD inh – inhibitors of Bacillus anthracis CapD enzyme | z-score (no concentration beside the values) | purified CapD enzyme, fluorescence intensity read-out; active compounds read low; some hits fall short of the stated cut | AID 492967 | hit rate 0.23% among 140,000;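 active = z-score under -4 in either of two replicates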;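 note: stock transfer was 100 nL into about 40 µL; score is relative to mean and spread of the plate; one replicate is shown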
AID504770 – growth inhibitors of E. coli YBA685 in a screen for V. cholerae RctB (chromosome II replication) inhibitors; E. coli YBA685 rctB-dependent plasmid, OD600 growth, 3 h; active compounds read low; z-score (concentration not given with the values); hit rate 0.27% among 130,000;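 active = z-score under -2 on both plates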;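 note: wells of about 30 µL received 100 nL stock; score is relative to mean and SD of the test wells; the first replicate is given; strong numbers were not always called active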
Active calls of the source: *; nt = no result given; & = joins results of further samples. An excerpt, so the mix of outcomes need not match the whole.

SMILES | CapD inh | AID504770
COc1ccc(-c2[nH]nc3c2C(c2ccc(N4CCOCC4)c([N+](=O)[O-])c2)C(C#N)=C(N)O3)cc1 (centres undefined) | -0.31 | nt
CCN1CCN(C(=O)C(C)Sc2nnc(-c3cccc(Cl)c3)n2CC)CC1 (centres undefined) | nt | 0.4
CCS(=O)(=O)N1CCN(c2ccccn2)CC1 | 14 | -0.55
N#Cc1cnn(-c2ccccc2)c1-n1cccc1 | 0.8 | nt
CNC(=S)NCc1ccco1 | -0.51 | -1.1
c1cc2c(cc1-c1cnc3n1CCC3)OCCO2 | -0.11 | -1.6
C=CCNC(=O)COc1ccc2c(c1C)OC(C)(C)CC2=O | 16 | 1.4
CC(=O)NC12CC3CC(CC(CC(=O)O)(C3)C1)C2 | -0.33 | 1.1
O=C(NCc1cccs1)c1ccc(CSc2nc3ccncc3[nH]2)cc1 | 0.66 | 0.65
O=C1C2C3c4ccccc4C(c4ccccc43)C2C(=O)N1Cc1cccnc1 (centres undefined) | 0.8 | nt
CCn1cc(C(=O)N2CCN(c3ccc(F)cc3)CC2)c2cc(OC)c(OC)cc2c1=O | 0.94 | -0.1
Cc1cc(C(F)(F)F)c2c(N)c(C(=O)Nc3cccc(C(F)(F)F)c3)sc2n1 | -0.39 | nt
CC1(c2ccccc2)NC(=O)N(CN2CCN(S(=O)(=O)/C=C/c3ccccc3)CC2)C1=O (centres undefined) | nt | 2.1
COC(=O)C1CCCCC1C(=O)NCCSCc1nc(OC)cc(OC)n1 (centres undefined) | -0.32 | nt
Cc1ccc(C)c(N2CC(O)(c3ccccc3)[N+]3=C2SCCC3)c1 (centres undefined) | -0.36 | nt
CCOC(=O)c1c(C)[nH]c(C)c1C#N | -0.94 | 0.45
CCC(=O)c1cn(CC(=O)NCc2ccco2)c2ccccc12 | 0.33 | -0.2
CC(NC(=O)c1c(O)c2ccccc2[nH]c1=O)c1ccccc1 (centres undefined) | 3.2 | 0.1
CCCCOC(=O)Nc1ccc(N2CCOCC2)cc1 | -0.15 | 0.45
CCOC(=O)c1c(C)oc2c1c(C=NCc1ccco1)c(O)c1ccccc12 | -0.64 | 1.6
Cc1cc(OC(=O)c2cccc(F)c2)n(-c2ccccc2)n1 | 0.32 | nt
c1ccc(CN2CCN(CC3CCCCC3)CC2)cc1 | -0.11 | -0.3
O=C(O)C1CC(=O)N(c2cccc(Cl)c2)C1 (centres undefined) | nt | -1.1
O=C(CN1C(=O)CC(c2ccccc2)S(=O)(=O)c2ccccc21)NC1CCCCC1 (centres undefined) | 0.6 | 0.35
Cc1noc(C)c1COC(=O)C1COc2ccccc2O1 (centres undefined) | nt | 0.1
O=S(=O)(c1ccccc1)N(CCOc1ccccc1)Cc1ccco1 | nt | 0.35
CN(C)C(=O)C(OC(=O)c1cc(=O)[nH]c2ccccc12)c1ccccc1 (centres undefined) | nt | -0.7
CCCCSC1=NC(=O)CC(=O)N1 | nt | 0.45
CC12CCCC(C(=O)NN)(CCC1)C2 | 0.15 | -0.25
COC(=O)c1ccc(Nc2nc(-c3ccc([N+](=O)[O-])cc3)nc3ccccc23)cc1 | 0.29 | nt
CC(C)c1nnc(NC(=O)c2cccs2)s1 | -1.1 | -0.15
Cc1sc2ncn(CC(=O)NCCc3ccc(S(N)(=O)=O)cc3)c(=O)c2c1C | nt | -0.55
COc1cc(OC)cc(C(C)(C)OC(=O)NN)c1 | 0.7 | 0.4
Clc1cccc(-c2nc(N3CCC4(CC3)OCCO4)nc3c2COc2ccccc2-3)c1 | 11 | -0.35
Cc1noc(CCn2c(=O)[nH]c3ccccc3c2=O)n1 | 7.1 | -0.8
COc1ccc(C(=O)NNC(=O)OCCc2ccc(Cl)cc2)cc1 | -0.61 | nt
CCOC(=O)C(=O)N1c2ccccc2Sc2ccc(C(F)(F)F)cc21 | -0.11 | nt
CN1c2ccccc2Oc2nnc(Cl)cc21 | 2 | -1.1
O=C1CSC2(C(=O)Nc3ccccc32)N1c1ccc(Cl)c(Cl)c1 (centres undefined) | 0.33&0.6 | nt
CCN(CC)CCOC(=O)c1ccc(NC(=O)CCCN2C(=O)/C(=C/c3ccccc3)SC2=S)cc1 | -0.49 | nt
c1ccc(-c2noc(COc3cccc4ccccc34)n2)cc1 | 1.6 | -0.65
Cc1ccc(C(=O)OCC(=O)C(C)(C)C)cc1 | -0.35 | -0.7
Cc1cc(F)ccc1S(=O)(=O)Nc1ccccc1C(=O)OCC(=O)NCc1ccco1 | nt | -0.45
CC(C)=N/N=c1\scc(-c2ccccc2)n1Cc1ccco1 | nt | -0.2
COc1ccccc1/C=C1/SC(=Nc2ccccc2Cl)NC1=O | 0.32 | nt

Reformatted: results already given.
Second line of a record – CapD inh, AID504770
- Cc1sc2ncn(CC(=O)NCCc3ccc(S(N)(=O)=O)cc3)c(=O)c2c1C
 : nt, -0.55
- COc1cc(OC)cc(C(C)(C)OC(=O)NN)c1
 : 0.7, 0.4

Next part:
SMILES | CapD inh | AID504770
C=CCn1c(SCC(=O)Nc2cc(C(=O)OC)cc(C(=O)OC)c2)nc2scc(-c3ccccc3)c2c1=O | -0.49 | nt
Cc1nn(Cc2ccc(C(=O)Nc3sc4c(c3C(=O)OC(C)C)CCCC4)o2)c(C)c1Cl | 0.05 | -0.1
CCOC(=O)c1cnn(C(=O)c2ccc(-n3c(C)ccc3C)cc2)c1N | 0.26 | -0.45
Cn1c(Cl)cnc1CSc1nnc(-c2ccc3c(=O)n4c(nc3c2)CCCCC4)o1 | nt | 2.1
CCOc1ccc(C2C(C(=O)Nc3ccc(Br)cn3)=C(C)NC3=C2C(=O)CC(C)(C)C3)cc1 (centres undefined) | 50 | nt
CCOc1ccc2[nH]c(=O)c(-c3nc4cccc(C)n4c3NCc3ccco3)cc2c1 | nt | -0.5
C=CCOC(=O)C1=C(C)NC(SCC(=O)Nc2nccs2)=C(C#N)C1c1cccs1 (centres undefined) | 1.3 | nt
CN(C)CCOC(=O)c1sc2ccccc2c1Cl | 3.6 | -0.7
Cc1nnsc1C(=O)N=S(C)(C)=O | -0.67 | -0.65
CNC(=S)N/N=C/c1ccc(-c2ccccc2C(=O)OC)o1 | 23 | 0.2
CCOc1ccsc1-c1nnc(-c2ccc(Cl)cc2)o1 | 101 | 1.7
COCC(C)n1c(C)cc(/C=C(\C#N)C(=O)O)c1C (centres undefined) | nt | 0.1
COc1ccc(N=C2SC(C(=O)Nc3ccc(F)cc3)CC(=O)N2Cc2ccc3c(c2)OCO3)cc1 (centres undefined) | -0.2 | nt
Cc1nc(N)nc(COc2ccccc2)n1 | 0.51 | -0.65
O=C(O)C1CCN(Cc2ccc(Cl)cc2)CC1 | nt | 1.8

Compound profiles (already shown). Screens in order: CapD inh	AID504770
`COCC(C)n1c(C)cc(/C=C(\C#N)C(=O)O)c1C` (centres undefined) across the screens: nt	0.1
`CCOc1ccc(C2C(C(=O)Nc3ccc(Br)cn3)=C(C)NC3=C2C(=O)CC(C)(C)C3)cc1` (centres undefined) across the screens: 50	nt
`Cn1c(Cl)cnc1CSc1nnc(-c2ccc3c(=O)n4c(nc3c2)CCCCC4)o1` across the screens: nt	2.1
`CNC(=S)N/N=C/c1ccc(-c2ccccc2C(=O)OC)o1` across the screens: 23	0.2
`Cc1nn(Cc2ccc(C(=O)Nc3sc4c(c3C(=O)OC(C)C)CCCC4)o2)c(C)c1Cl` across the screens: 0.05	-0.1

More results follow.
SMILES | CapD inh | AID504770
O=C(CSc1ncccc1C(=O)Nc1ccnn1C1CCCCC1)Nc1ccc2c(c1)OCO2 | nt | -0.15
Clc1ccc(COn2c(-c3ccccc3)nc3ccccc32)c(Cl)c1 | 0.39 | nt
CC(C)(C)OC(=O)NC(Cc1cnc[nH]1)C(=O)NNC(=O)c1ccc(-n2nc(-c3ccccc3)cc2-c2ccccc2)cc1 (centres undefined) | 1.9 | nt
COC(=O)c1cccc(N2C(=O)C3C(C2=O)C2(C)C=CC3(C)O2)c1 (centres undefined) | 1.1 | nt
CC(=O)Nc1sc2c(c1-c1nc3ccccc3s1)CCCC2 | nt | -0.75
CN1CCN(C(=O)c2ccc3c(c2)NC(=O)/C(=C/c2ccccc2)S3)CC1 | -1.1 | -1.2
O=C1C2C3c4ccccc4C(c4ccccc43)C2C(=O)N1CN1CCOCC1 (centres undefined) | nt | 0
Cc1ncc(CN2CCCCC2)c(N)n1 | -0.6 | 2.5
CCOc1ccc(-c2cccc(NC(=O)c3c(OC)cccc3OC)c2)nn1 | nt | -1
CC(=O)Nc1cccc(C(=O)OCC(=O)N2c3ccccc3CC2C)c1 (centres undefined) | -0.77 | -0.9
O=C1C2C3C=CC(C3)C2C(=O)N1c1ncn[nH]1 (centres undefined) | -0.11 | -0.4
OC(c1ccccc1)C1CN(Cc2ccccc2)CCC1(O)c1ccccc1 (centres undefined) | 0.46 | 0.3
O=C1C2C(c3ccc([N+](=O)[O-])cc3)OC3(C(=O)c4ccccc4C3=O)C2C(=O)N1c1ccc(Cl)cc1 (centres undefined) | -0.19 | nt
CCCNC(=O)NC1CCCc2ccccc21 (centres undefined) | -0.5 | 1.6
CCN(CC)C(CN)c1ccccc1 (centres undefined) | nt | 1.1
O=c1/c(=C/c2cn(Cc3c(F)cccc3Cl)c3ccccc23)sc2nc3ccccc3n12 | -1.8 | nt
CCCCc1ccc(NC(=O)C=C(C)C)cc1 | -0.08 | 0.15
Cc1ccc(-n2nc(C(=O)NC(C)CCc3ccccc3)c3c4ccccc4n(C)c3c2=O)cc1 (centres undefined) | 17 | -2.8*
CC(=O)Nc1nonc1-c1nc2ccccc2n1CCCC#N | 1.9 | 1.8
CCOC(=O)C1=C(C)OC(N)=C(C#N)C1c1cccc(OCc2ccccc2)c1 (centres undefined) | 0.98 | nt
CC(NC(=O)CSc1nnc2c(n1)[nH]c1ccccc12)c1ccccc1 (centres undefined) | -0.01 | nt
COC(=O)c1cc(=O)[nH]c2ccccc12 | 3.3 | 1.9
CC(NC(C(=O)O)c1ccccc1)c1ccccc1 (centres undefined) | 0.045 | -0.55
O=C(O)CCS(=O)(=O)Cc1ccccc1Cl | 74 | 0.05
C/C(=N\NC(=O)Cc1cc(=O)[nH][nH]1)c1cccs1 | -0.7 | -1.4
CS(=O)(=O)c1ccc(CSCCNC(=O)c2cc(Cl)nc(Cl)c2)cc1 | -0.13 | nt
COc1cc(-c2nnc(SCC(=O)NC3CCCC(C)C3C)o2)cc(OC)c1OC (centres undefined) | nt | 1.1
CCCCN(CCCC)CC(O)CN(c1ccc(OC)cc1)S(=O)(=O)c1ccc(C)cc1 (centres undefined) | -0.67 | nt
Cc1ccc(CCNC(=O)Cc2noc3ccccc23)cc1 | 0.35 | 0.1
O=C(NCCN1C(=O)S/C(=C\c2ccccc2F)C1=O)C1Cc2ccccc2CN1C(=O)c1ccco1 (centres undefined) | nt | 1.3
CC(=O)Nc1c(C#N)c(C)n(-c2ccccc2)c1C(=O)c1ccccc1 | -0.68 | 1
O=c1c2ccccc2nc2oc3ccccc3n12 | 5.2 | -0.4
Cc1noc(C)c1CSc1nnc(-c2ccc(Br)cc2)n1C1CCCCC1 | nt | 3.3
c1ccc(C(c2ccccc2)N2CCN(Cc3nnnn3Cc3ccc4c(c3)OCO4)CC2)cc1 | nt | 0.05
CC1(C)CC(=O)C=C(NCC(O)c2ccccc2)C1 (centres undefined) | nt | 1.9
S=c1[nH]nc2nc3c4ccccc4c4ccccc4c3nn12 | -1.5 | nt
COc1cc(C2C(C#N)=C(N)N(c3ccc(C)cc3)C3=C2C(=O)CC(C)(C)C3)cc(OC)c1OC (centres undefined) | 5.5 | nt
COC(=O)c1ccc(C=Nc2ccc3oc(-c4ccc(N(C)C)cc4)nc3c2)cc1 | nt | -0.75
Cc1cc(C)c2c(c1)-c1cc(C)nn1C(c1ccc(N3CCOCC3)cc1)N2 (centres undefined) | 67 | -0.3
CCc1ccc(C2(O)CC(C(F)(F)F)=NN2C(=O)c2cccc(C)c2)cc1 (centres undefined) | 0.005 | nt
Fc1cccc(-n2ccc(-c3ccccc3)n2)n1 | 0.27 | -0.9
O=C1CCC(=O)N1C(c1ccccc1)c1ccccc1 | nt | -0.05
C1=C(c2ccccc2)NN=C(/N=C/c2ccco2)S1 | -1 | -0.2
CCCCCCC#CCOC(=O)N1CCN(c2ccccc2C)CC1 | -0.51 | nt
Cc1ccc(OCC(=O)NCc2ccc(C(=O)O)cc2)cc1C | -0.68 | -0.65
Cc1ccc(N2COc3ccc(Cl)cc3C2)cc1 | 0.31 | -0.55
CCNc1nc(NCC)n2c(SC3CCc4ccccc4C3=O)nnc2n1 (centres undefined) | 0.4 | nt
COc1ccc(/C=N/NC(=S)NC2CC3CCC2C3)cc1OC (centres undefined) | -0.98 | nt
O=C(Cc1ccccc1)OC1OCCOC1OC(=O)Cc1ccccc1 (centres undefined) | nt | 0.45
C=CCn1c(SC(C)C)nc2sc3c(c2c1=O)CCCC3 | nt | -0.15
CC1CCN(S(=O)(=O)c2ccc3c(c2)[nH]c2nc4nc(-c5ccc(Br)cc5)cn4nc23)CC1 | -0.51 | nt
OC1CCCCC1N1CCC(c2ccccc2)C1 (centres undefined) | -0.88 | -0.3
CCOC(=O)c1oc2ccccc2c1CN1CCC(C(N)=O)CC1 | -0.42 | -0.65
CCOc1cc(C2C3=C(CCCC3=O)OC3=C2C(=O)CCC3)ccc1OCC(=O)O | -0.18 | -0.6

Part of the list above in order of heavy-atom count, highest first.
SMILES | CapD inh | AID504770
CC1CCN(S(=O)(=O)c2ccc3c(c2)[nH]c2nc4nc(-c5ccc(Br)cc5)cn4nc23)CC1 | -0.51 | nt
CCOc1cc(C2C3=C(CCCC3=O)OC3=C2C(=O)CCC3)ccc1OCC(=O)O | -0.18 | -0.6
CCOC(=O)c1oc2ccccc2c1CN1CCC(C(N)=O)CC1 | -0.42 | -0.65
COc1ccc(/C=N/NC(=S)NC2CC3CCC2C3)cc1OC (centres undefined) | -0.98 | nt
